MLL AF4-AF9 inh: MLL-AF4/AF9 protein interaction inhibition; P42568; AlphaScreen, biotin-AF4 peptide binding to FLAG-AF9; inhibition, % at 10 µM; 350,000 compounds, 0.47% hits;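 active = every replicate reaching a set inhibition limit, whatever the replicate mean, cut at about 25% in these data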;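 note: 0% = plate neutral control median and 100% = total signal loss; the record names both 10 and 1 µM as test concentration; the first replicate is given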
Target sequence (P42568 whole entry, looked up): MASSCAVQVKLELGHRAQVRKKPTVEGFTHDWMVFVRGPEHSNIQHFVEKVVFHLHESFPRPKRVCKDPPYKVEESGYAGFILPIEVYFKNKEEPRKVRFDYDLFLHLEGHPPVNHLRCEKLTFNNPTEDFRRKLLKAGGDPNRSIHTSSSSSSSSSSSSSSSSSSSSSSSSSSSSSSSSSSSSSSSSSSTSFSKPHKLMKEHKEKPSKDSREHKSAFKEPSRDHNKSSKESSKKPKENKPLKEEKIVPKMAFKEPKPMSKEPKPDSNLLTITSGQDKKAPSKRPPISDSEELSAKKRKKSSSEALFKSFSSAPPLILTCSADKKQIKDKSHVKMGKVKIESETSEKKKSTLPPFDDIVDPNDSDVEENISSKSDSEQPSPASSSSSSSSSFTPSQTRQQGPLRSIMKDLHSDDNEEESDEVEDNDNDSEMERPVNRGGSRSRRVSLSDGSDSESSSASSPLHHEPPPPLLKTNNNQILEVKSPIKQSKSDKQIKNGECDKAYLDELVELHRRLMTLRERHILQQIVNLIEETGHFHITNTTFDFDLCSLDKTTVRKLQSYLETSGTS
The depositor's hits bear a star; & = joins results of further samples.

SMILES	MLL AF4-AF9 inh
C[C@H](CO)N1C[C@H](C)[C@@H](CN(C)Cc2ccc(C(F)(F)F)cc2)OCCCC[C@H](C)Oc2ccc(NC(=O)Nc3ccc(F)cc3)cc2C1=O	-2.2
COCC(=O)N1[C@@H](CO)[C@@H]2c3ccccc3N(C)C[C@@H]21	1.2
C[C@@H]1CN([C@H](C)CO)C(=O)c2cc(-c3cccnc3)cnc2O[C@H]1CN(C)C(=O)NC1CCCC1	-13.1
O=C(C[C@@H]1C=C[C@H](NC(=O)C2CC2)[C@H](CO)O1)NCC1CC1	-0.5
Cc1noc(C)c1S(=O)(=O)Nc1ccc2c(c1)CC(=O)N([C@@H](C)CO)C[C@H](C)[C@@H](CN(C)S(=O)(=O)c1ccc(Cl)cc1)O2	-0.3
CCC(=O)N1CC[C@@H]2[C@@H](CO)Nc3ccc(C#Cc4ccccc4)cc3[C@@H]21	3.9
COc1ccc(-c2ccc(C(=O)Nc3ccc(OC)nc3)c3occc23)c(C)c1	0.3
Cc1noc(C)c1S(=O)(=O)Nc1ccc2c(c1)C(=O)N([C@@H](C)CO)C[C@@H](C)[C@H](CN(C)CC1CC1)O2	-2.8
CO[C@@H]1CN(C)C(=O)c2ccc(NS(=O)(=O)c3cn(C)cn3)cc2OC[C@@H](C)N(Cc2ccc(C(F)(F)F)cc2)C[C@H]1C	3.8
COc1ccc(S(=O)(=O)N2CCCCN3[C@H](C2)[C@H](c2ccc(C4=CCCC4)cc2)[C@@H]3CO)cc1	-7.5
C[C@H]1CN([C@@H](C)CO)C(=O)c2cc(C#Cc3cccc(F)c3)cnc2O[C@@H]1CN(C)Cc1ccccn1	-7.9
CN1C(=O)c2cc(NS(C)(=O)=O)ccc2OC[C@@H]2O[C@@H](CC(=O)NC3CCCCC3)CC[C@@H]21	-2.3
O=C(Nc1cc(F)ccc1F)N1CC(=O)N2[C@H](CO)[C@H](c3ccc(-c4cccnc4)cc3)[C@H]2C1	-3.3
C[C@H](CO)N1C[C@H](C)[C@H](CN(C)C(=O)Cc2ccccc2)OCCCC[C@H](C)Oc2ccc(NC(=O)c3ccncc3)cc2C1=O	-5.0
Cc1ccc(S(=O)(=O)N(C)C[C@H]2Oc3c(NC(=O)Nc4cccc5ccccc45)cccc3C(=O)N([C@@H](C)CO)C[C@@H]2C)cc1	2.1&2.0
C[C@@H]1CN([C@@H](C)CO)C(=O)Cc2cc(NC(=O)Nc3ccc(C(F)(F)F)cc3)ccc2O[C@H]1CN(C)Cc1ccc(-c2ccccc2)cc1	0.3
Cc1noc(C)c1NC(=O)N[C@H]1C=C[C@@H](CC(=O)NCCCN(C)C)O[C@H]1CO	1.3
Cc1noc(C)c1S(=O)(=O)Nc1ccc2c(c1)CC(=O)N([C@H](C)CO)C[C@H](C)[C@H](CN(C)C(=O)NC(C)C)O2	-1.5
CC(C)(C)n1nnnc1C(c1cc2ccccc2o1)N(CCC#N)Cc1ccccc1 (stereo not given)	-0.9
CCC(=O)Nc1ccc2c(c1)OC[C@H](C)NC[C@H](C)[C@@H](OC)CN(C)C2=O	0.4
C[C@H](CO)N1C[C@H](C)[C@@H](CN(C)S(=O)(=O)c2cn(C)cn2)Oc2c(NS(C)(=O)=O)cccc2C1=O	-16.0
COc1ccc(S(=O)(=O)N(C)C[C@H]2Oc3ccc(NC(=O)NC(C)C)cc3CC(=O)N([C@@H](C)CO)C[C@@H]2C)cc1	-2.0
CC(C)NC(=O)Nc1ccc2c(c1)C(=O)N([C@H](C)CO)C[C@H](C)[C@@H](CN(C)C(=O)CCC(F)(F)F)OCCCC[C@H](C)O2	-0.7
C=CCn1c(Cn2c(-c3cnccn3)nc3ccccc32)nc2ccccc21	-1.6
C[C@H]1CN([C@@H](C)CO)C(=O)c2cc(N(C)C)ccc2O[C@@H]1CN(C)S(=O)(=O)c1ccccc1	-1.5
O=C(c1cccc(F)c1)N1CC(=O)N2[C@H](CO)[C@@H](c3ccc(C4=CCCC4)cc3)[C@H]2C1	3.5
COc1ccc2[nH]c3c(c2c1)CCN1C(=O)C(CC(=O)NCc2ccco2)C[C@H](C(=O)N2CCOCC2)[C@@]31C (stereo not given in full)	-1.0
CCC(=O)N1C[C@H](C)[C@@H](OC)CN(C)C(=O)c2cc(NC(=O)C3CCCCC3)ccc2OC[C@@H]1C	0.1
CN1C[C@H]2[C@@H](c3ccccc31)[C@H](CO)N2C(=O)c1ccccn1	-2.6
Cc1noc(C)c1NC(=O)N(C)C[C@H]1Oc2c(NS(=O)(=O)c3cn(C)cn3)cccc2C(=O)N([C@@H](C)CO)C[C@H]1C	-2.4
C[C@H](CO)N1C[C@H](C)[C@H](CN(C)CC2CCOCC2)Oc2ncc(C#CCc3ccccc3)cc2C1=O	0.3
C[C@@H]1CN([C@@H](C)CO)C(=O)c2cc(NS(C)(=O)=O)ccc2O[C@@H]1CN(C)C(=O)NC1CCCCC1	-2.1
O=C(C[C@H]1CC[C@@H]2[C@H](COC[C@@H](O)CN2C(=O)c2ccncc2)O1)NC1Cc2ccccc2C1	0.2
CC(C)CC#Cc1ccc([C@H]2[C@H]3CN(S(=O)(=O)c4cccc(F)c4)CC(=O)N3[C@H]2CO)cc1	-0.7
Cc1ccc(S(=O)(=O)Nc2ccc3c(c2)C(=O)N([C@H](C)CO)C[C@@H](C)[C@@H](CN(C)C(=O)Nc2ccccc2)OCCCC[C@@H](C)O3)cc1	0.1
O=C(C[C@H]1CC[C@H](NC(=O)Nc2ccc(F)cc2)[C@H](CO)O1)NCCN1CCCC1	-4.6
C=CC[C@]12C[C@@]3(O[C@H](c4ccc(C(F)(F)F)cc4)N=C3C[C@H](c3ccc(OC)cc3)[C@H]1C)N(C1CCN(Cc3ccccc3)CC1)C2=O	-1.4
COc1cccc(C(=O)Nc2ccc3c(c2)C(=O)N(C)C[C@@H](OC)[C@H](C)CN[C@H](C)CO3)c1	-2.7
CCCNC(=O)C[C@H]1C[C@H]2c3cc(NC(=O)NC4CCCC4)ccc3O[C@H]2[C@H](CO)O1	2.1
Cc1ccc(S(=O)(=O)N(C)C[C@@H]2Oc3ccc(NC(=O)C4CC4)cc3CC(=O)N([C@@H](C)CO)C[C@@H]2C)cc1	0.6
C[C@@H]1CN([C@@H](C)CO)C(=O)c2cc(NC(=O)c3ccncc3)ccc2O[C@H]1CN(C)Cc1ccncc1	-1.7
CNC[C@@H]1OCCCC[C@@H](C)Oc2ccc(NC(=O)Nc3cccc4ccccc34)cc2C(=O)N([C@H](C)CO)C[C@H]1C	10.9
O=C(NC[C@@H]1CC[C@@H]2[C@@H](CN2S(=O)(=O)c2ccccc2[N+](=O)[O-])O1)C1CCCCC1	-9.2
C[C@H](CO)N1C[C@H](C)[C@H](CN(C)C(=O)Nc2ccccc2)Oc2ccc(NC(=O)CCC(F)(F)F)cc2CC1=O	-4.1
C[C@H]1CCCCO[C@H](CN(C)C(=O)c2ccccc2)[C@@H](C)CN([C@@H](C)CO)C(=O)c2cc(NC(=O)Cc3ccccc3)ccc2O1	-2.9
COc1ccc(NC(=O)Nc2ccc3c(c2)C(=O)N([C@H](C)CO)C[C@@H](C)[C@H](CN(C)Cc2ccc(Oc4ccccc4)cc2)O3)cc1	-2.8
O=C(C[C@@H]1C[C@@H]2c3cc(NC(=O)c4cccnc4)ccc3O[C@@H]2[C@@H](CO)O1)NCCN1CCCCC1	-9.1
O=C(c1cccc(F)c1)N1CCCCN2[C@H](C1)[C@H](c1ccc(-c3ccncc3)cc1)[C@@H]2CO	6.9
O=C(C[C@@H]1CC[C@H]2[C@@H](COC[C@@H](O)CN2C(=O)c2ccncc2)O1)Nc1ccc(-c2ccccc2)cc1	1.6
CN1CCN(C(=O)C[C@@H]2CC[C@@H]3[C@H](COC[C@@H](O)CN3Cc3ccc4c(c3)OCO4)O2)CC1	-0.7
Cc1cc(C(=O)Nc2cccc3c2O[C@H](CN(C)S(C)(=O)=O)[C@H](C)CN([C@H](C)CO)C3=O)n(C)n1	-9.5
Cc1ccc(S(=O)(=O)N(C)C[C@H]2Oc3c(NC(=O)Nc4ccc(C(F)(F)F)cc4)cccc3C(=O)N([C@@H](C)CO)C[C@H]2C)cc1	3.0
COc1ccccc1Cc1c(-c2ccc(OC)c(OC)c2)nc2c(Cl)cc(C(F)(F)F)cn12	3.2
CO[C@H]1CN(C)C(=O)c2cc(NC(=O)c3ccc(Oc4ccccc4)cc3)ccc2OC[C@@H](C)NC[C@@H]1C	9.6
CNC(=O)C[C@H]1CC[C@@H]2[C@H](COC[C@H](O)CN2C(=O)Nc2cccc(OC)c2)O1	-6.8
C[C@H]1CN([C@@H](C)CO)C(=O)c2cc(NS(=O)(=O)c3ccccc3)ccc2O[C@H]1CN(C)S(=O)(=O)c1cccs1	3.1
CN1CCN(C(=O)c2cc3c(c(-c4cccc(-c5ccc(C#N)cc5)c4)n2)[C@@H](CCO)N([S@](=O)C(C)(C)C)C3)CC1	0.1
C[C@@H]1CN([C@@H](C)CO)S(=O)(=O)c2ccc(C#Cc3ccccc3F)cc2O[C@@H]1CN(C)C(=O)Cc1ccncc1	2.4
C[C@H]1CN([C@@H](C)CO)C(=O)c2cc(NC(=O)CCN3CCOCC3)ccc2O[C@@H]1CN(C)S(C)(=O)=O	-0.8
COc1ccc(NC(=O)Nc2ccc3c(c2)[C@@H]2C[C@@H](CC(=O)N(C)C)O[C@@H](CO)[C@@H]2O3)cc1	2.4

Further records follow.
SMILES	MLL AF4-AF9 inh
CC(C)NC(=O)N[C@@H]1CC[C@@H](CCNC(=O)C2CCOCC2)O[C@H]1CO	-2.0
C/C=C/c1ccc([C@H]2[C@@H](CO)N(C(=O)c3cnccn3)C23CN(C(=O)C2CC2)C3)cc1	-0.5
CC(C)NC(=O)N(C)C[C@H]1Oc2ncc(C3=CCCCC3)cc2C(=O)N([C@@H](C)CO)C[C@H]1C	-13.3
C[C@H]1CN([C@@H](C)CO)C(=O)c2ccccc2-c2ccccc2CO[C@@H]1CN(C)Cc1ccccc1C(F)(F)F	-1.4
CCCC(=O)Nc1ccc2c(c1)OC[C@@H](C)N(Cc1ccccn1)C[C@H](C)[C@@H](OC)CN(C)C2=O	-14.1
COC(=O)[C@]12C[C@H](CC(=O)NCC34CC5CC(CC(C5)C3)C4)C(=O)N(Cc3ccccc3)C1=C[C@H](C1CCCC1)O[C@@H]2C	4.0
C[C@H](CO)N1C[C@H](C)[C@@H](CN(C)S(=O)(=O)c2ccc(F)cc2)OCCCC[C@H](C)Oc2ccc(NS(=O)(=O)c3cn(C)cn3)cc2C1=O	-6.6
CO[C@H]1CN(C)C(=O)c2ccc(NC(=O)CC(F)(F)F)cc2OC[C@@H](C)N(CC2CC2)C[C@H]1C	-14.4
COCC#Cc1cnc2c(c1)C(=O)N([C@@H](C)CO)C[C@H](C)[C@@H](CN(C)Cc1ccc3c(c1)OCO3)O2	2.2
CN(C(=O)COC(=O)c1ccc(S(=O)(=O)N2CCCCCC2)cc1)c1ccccc1	-0.3
CCCCN(C(=O)c1cccc(S(=O)(=O)N(C)c2ccc(C)cc2)c1)c1c(N)n(CC(C)C)c(=O)[nH]c1=O	0.4
O=C(C[C@@H]1CC[C@@H]2[C@H](COC[C@H](O)CN2C(=O)c2ccccc2F)O1)NCc1ccccc1	-0.3
C[C@@H]1CN([C@H](C)CO)C(=O)Cc2cc(NC(=O)Cn3cnnn3)ccc2O[C@@H]1CN(C)C	-3.4
O=C(c1ccco1)N1CCN(C(=O)c2ccco2)C1=S	1.3
Cc1ccc(S(=O)(=O)N(C)C[C@H]2Oc3c(NS(=O)(=O)c4ccc(Cl)cc4)cccc3C(=O)N([C@@H](C)CO)C[C@@H]2C)cc1	0.8
Cc1cc(=O)oc2cc(O)cc(O)c12	2.2
C[C@H](CO)N1C[C@H](C)[C@H](CN(C)C(=O)Cc2ccncc2)Oc2cc(C3=CCCC3)ccc2S1(=O)=O	-2.1
C[C@@H]1CN([C@@H](C)CO)C(=O)c2cc(NC(=O)NC3CCCCC3)ccc2O[C@@H](C)CCCCO[C@H]1CN(C)C(=O)c1ccccc1	2.9
CO[C@@H]1CN(C)C(=O)c2ccc(NC(=O)c3ccc4c(c3)OCO4)cc2OC[C@H](C)N(CC2CC2)C[C@@H]1C	-5.1
C[C@H](CO)N1C[C@H](C)[C@H](CN(C)S(=O)(=O)c2cn(C)cn2)OCCCC[C@H](C)Oc2ccc(NC(=O)c3ccccc3)cc2C1=O	-3.0
CCCNC(=O)N(C)C[C@@H]1[C@@H](c2ccccc2)[C@H](CO)N1C(=O)c1ccccc1	-2.0
N#C[C@@H]1[C@@H](c2ccccc2)[C@@H](CO)N1C(=O)c1cc(Cl)cc(Cl)c1	-0.3
COc1ccc(-c2ccc3c(c2)[C@H]2[C@H](CCN2S(=O)(=O)c2ccccc2C)[C@@H](CO)N3)cc1	-2.4

10 entries from above, in markdown.
| SMILES | MLL AF4-AF9 inh |
| --- | --- |
| O=C(c1ccco1)N1CCN(C(=O)c2ccco2)C1=S | 1.3 |
| Cc1ccc(S(=O)(=O)N(C)C[C@H]2Oc3c(NS(=O)(=O)c4ccc(Cl)cc4)cccc3C(=O)N([C@@H](C)CO)C[C@@H]2C)cc1 | 0.8 |
| Cc1cc(=O)oc2cc(O)cc(O)c12 | 2.2 |
| C[C@H](CO)N1C[C@H](C)[C@H](CN(C)C(=O)Cc2ccncc2)Oc2cc(C3=CCCC3)ccc2S1(=O)=O | -2.1 |
| C[C@@H]1CN([C@@H](C)CO)C(=O)c2cc(NC(=O)NC3CCCCC3)ccc2O[C@@H](C)CCCCO[C@H]1CN(C)C(=O)c1ccccc1 | 2.9 |
| CO[C@@H]1CN(C)C(=O)c2ccc(NC(=O)c3ccc4c(c3)OCO4)cc2OC[C@H](C)N(CC2CC2)C[C@@H]1C | -5.1 |
| C[C@H](CO)N1C[C@H](C)[C@H](CN(C)S(=O)(=O)c2cn(C)cn2)OCCCC[C@H](C)Oc2ccc(NC(=O)c3ccccc3)cc2C1=O | -3.0 |
| CCCNC(=O)N(C)C[C@@H]1[C@@H](c2ccccc2)[C@H](CO)N1C(=O)c1ccccc1 | -2.0 |
| N#C[C@@H]1[C@@H](c2ccccc2)[C@@H](CO)N1C(=O)c1cc(Cl)cc(Cl)c1 | -0.3 |
| COc1ccc(-c2ccc3c(c2)[C@H]2[C@H](CCN2S(=O)(=O)c2ccccc2C)[C@@H](CO)N3)cc1 | -2.4 |

Compound activity as filed in PubChem BioAssay.

An excerpt; rates above refer to the full screens.
